ClpP mod: qHTS Assay for Activators of ClpP. Potency, µM (highest dose often 57.5 µM), for inactives: at the highest dose activity change, negative = active. ATP-dependent Clp protease proteolytic subunit (Bacillus subtilis (strain 168)), P80244. 340,000 compounds, 1.9% hits. purified B. subtilis ClpP, FRET peptide cleavage, 20 min; active = well fitted falling curve with a large enough effect; inconclusive = small, poorly fitted or top-dose-only effect; inactive = no such curve, though single readings can be large or run the other way; further: potency means the concentration at half of the fitted maximal effect; the source files actives as falling curves though it sought activators and does not explain the sign; nearly all actives have a fitted effect of over 65% in size; many hits overshoot -100%
Target sequence (P80244 whole entry, looked up): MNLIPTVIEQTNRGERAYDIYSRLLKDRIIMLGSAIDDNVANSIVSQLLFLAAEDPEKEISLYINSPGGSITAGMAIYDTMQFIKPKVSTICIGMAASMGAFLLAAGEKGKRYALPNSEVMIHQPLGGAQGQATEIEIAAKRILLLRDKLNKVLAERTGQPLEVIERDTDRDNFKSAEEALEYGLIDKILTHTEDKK
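FRET quenching reversal measured ClpP activation: 10 microg/mL B. subtilis ClpP at pH 8 with the FRET-FV decapeptide, read at 430 nm after 320 nm excitation. The 20-min minus 0-min signal was scaled between DMSO/no-enzyme wells and ADEP (5.8 microM final).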
TRPML1 inh: human mucolipin-1 channel inhibition. TRPML1-inducible cells, Ca2+ dye fluorescence, FDSS; stronger effect = lower value; inhibition of EC80 agonist-evoked calcium signal. AID 624415. 390,000 compounds, 0.02% hits. activity change, negative = inhibition, % (no concentration beside the values). Q9GZU1; in the data active means activity change below about -50%; inconclusive means about -30% to -50%; inactive means above about -30%;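 further: stimulus is agonist 54-4 at its EC80 concentration; on the % scale 0 is the no-effect control and ±100 the full control effect; compound concentration not given in the record; the text of the record puts the active cut at -80%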
Target sequence (Q9GZU1 whole entry, looked up): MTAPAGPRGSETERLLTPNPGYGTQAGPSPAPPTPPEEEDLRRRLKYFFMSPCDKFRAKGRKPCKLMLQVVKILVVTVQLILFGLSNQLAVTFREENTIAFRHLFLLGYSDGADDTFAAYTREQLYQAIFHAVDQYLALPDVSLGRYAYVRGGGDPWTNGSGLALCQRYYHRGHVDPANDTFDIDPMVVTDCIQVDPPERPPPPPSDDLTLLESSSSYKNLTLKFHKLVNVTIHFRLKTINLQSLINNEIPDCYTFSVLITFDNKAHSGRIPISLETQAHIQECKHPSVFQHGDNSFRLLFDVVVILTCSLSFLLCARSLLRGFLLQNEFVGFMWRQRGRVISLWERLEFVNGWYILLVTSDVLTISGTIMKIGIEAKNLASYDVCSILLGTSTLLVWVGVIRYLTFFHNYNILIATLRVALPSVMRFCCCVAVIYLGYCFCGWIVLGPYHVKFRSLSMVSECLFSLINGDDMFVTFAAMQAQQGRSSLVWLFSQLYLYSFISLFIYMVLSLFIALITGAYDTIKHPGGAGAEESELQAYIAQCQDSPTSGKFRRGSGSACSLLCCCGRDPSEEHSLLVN
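TRPML1-DL cells, Tet-induced overnight (~16 h, 37 °C) at 1,500 cells/well, were loaded with Ca8 no-wash dye plus quencher for 45-90 min at room temperature. Compounds were pinned during FDSS kinetic reading; agonist 54-4 at EC80 (4 uM final) then added.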
gsp antag: antagonizes gsp, the McCune-Albright syndrome mutation; 340,000 compounds, 0.4% hits; Potency, µM (series often up to 76.9 µM), inactives show at the top dose activity change, negative = inhibition, usual class: inhibitors; gsp-mutant cells, cAMP HTRF, 30 min; control for the full effect not named in the record; active = falling curve of any shape with a large fitted effect; inconclusive = falling curve, mostly with a smaller effect; inactive = flat or rising curve; cell line not stated here;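 further: intracellular cAMP measured with PDE inhibitor Ro 20-1724 present during compound exposure; potency means the concentration at half of the fitted maximal effect; on the % scale 0 is the no-effect control and ±100 the full control effect; nearly all actives have a fitted effect of over 65% in size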
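Cells in G418 medium, seeded 16-24 h, 37C; buffer exchange to DPBS + 1 mM CaCl2, 0.5 mM MgCl2, 0.05% BSA; cpds in DMSO + […] (300 uM stock), 30 min 37C; HTRF cAMP detection.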
gsp agonist: activates gsp, the McCune-Albright syndrome mutation; gsp mutant cells, cAMP HTRF, 30 min; control for the full effect not named in the record; Potency, µM (titrated, usually from 76.9 µM), inactives show top-dose activation (cAMP increase), hits mostly activators; 340,000 compounds, 0.13% hits; AID 624287; active = well fitted activation curve with a large enough effect; inconclusive = small, poorly fitted or top-dose-only effect, or another doubt; inactive = no such curve, though single readings can be large or run the other way; cell line not stated here;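 further: phosphodiesterase inhibitor Ro 20-1724 added with compounds to block cAMP breakdown; potency means the concentration at half of the fitted maximal effect; nearly all actives have a fitted effect of over 60% in size; about a fifth of the inactives were tested at one dose only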
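Cells stably selected in G418 were plated at 2000/well, grown 16-24 hr, then given compounds in DMSO with the PDE inhibitor […] (300 uM solution added) for 30 min at 37C; cAMP was read by HTRF.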
TRPML1 ag: agonists of human TRPML1 channel; Q9GZU1; activation, % (no concentration beside the values); TRPML1-expressing cells, Ca2+ dye fluorescence, FDSS; host cell line not named in the record; reference of the full effect not given here; 410,000 compounds, 0.12% hits; in the data active = activation above about 50%; inconclusive = about 30% to 50%; inactive = below about 30%; further: 0% is about no effect; the text of the record puts the active cut at 80%
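In this qHTS format, compounds were pin-transferred onto Ca8-dye-loaded TRPML1-DL cells induced with Tet overnight, and intracellular Ca2+ fluorescence was recorded kinetically for 110 s after a 10 s baseline. A subsequent 4uM final 54-4 (EC80) addition followed by a second 110 s read served as the antagonist phase.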
Menin MLL FP FL: inhibitors of human menin-MLL interaction, wild-type MLL peptide | Fluorescence polarization, fluorescein-MLL peptide displacement from menin | FP activity change, % at 61.4 µM | 290,000 tested, under 10 active | AID 1766; inconclusive = falling polarisation curve, or a change in total fluorescence; inactive = total fluorescence flat and polarisation flat or rising; no compound was filed as active; the % refers to the polarisation; negative = inhibition;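 further: % of control where 0% means no effect; inhibitors lower the polarisation; unlabelled MLL peptide was the positive control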
* hit, by the source's call; ? = inconclusive; / = not tested or not shown; & = joins results of further samples; [ ] = dose if it differs, or a comment.

SMILES	ClpP mod	TRPML1 inh	gsp antag	gsp agonist	TRPML1 ag	Menin MLL FP FL
Cc1c(Cl)cccc1NC(=O)CSc1nnnn1C	0.8%	7	11%	-21%	0.1	/
COc1ccc(F)cc1S(=O)(=O)NCCCn1ccnc1	/	-7	3%	-1%	0.2	1.6
CCN(CCn1cccn1)Cc1cn[nH]c1-c1ccc(-c2ccccc2)cc1	-2.0%	-9	-4%	25%	-1.4	-2.5
Cc1ccc(S(=O)(=O)NCCC(=O)NCC(=O)Nc2c(C)cccc2C)cc1C	/	1	7%	-8%[15.4 µM]	1.3	/
CC(=O)Oc1cccc(N2C(=O)C3C4C=CC(C4)C3C2=O)c1 (stereo unspecified)	-0.9%	-24	14%	-55%[inhibitor]	0.1	-1.5
O=C(c1ccc(CS(=O)Cc2ccccc2Cl)o1)N1CCN(c2ccccn2)CC1 (stereo unspecified)	0.4%	4	-17%	-52%[inhibitor]	-0.7	-3.9
Cc1cc([N+](=O)[O-])ccc1N(C)C	-0.8%	-4	7%	32%	-0.3	0.4
CCN(CC)S(=O)(=O)c1ccc2nnn(O)c2c1	-0.2%	-13	-2%	9%[15.4 µM]	0.0	-5.3
O=C(Nc1nc2ccc(Br)cc2s1)c1ccco1	0.4%	4	0%	13%[15.4 µM]	0.4	-2.7
S=C(NCc1ccc(Cl)cc1Cl)NC1CCCCC1	1.7%	-16	-24%	-7%	2.3	-1.6
COc1ccc(CC(=O)NCC2CCCN(Cc3ccccc3OC)C2)cc1 (stereo unspecified)	0.0%	-16	4%	-27%	0.3	5.0
CCC(C)(C)NC(=O)CN(C(=O)CNS(=O)(=O)c1ccc(C)cc1)c1ccc2c(c1)OCCO2	0.1%	8	0%	?	0.4	-0.1
O=C(NC1CCC(=O)N(CCSc2ccccc2)CC1)OCc1ccccc1 (stereo unspecified)	-2.9%&0.6%	12	-1%	/	0.2&-0.8	0.2
COc1nc(-c2cccc([N+](=O)[O-])c2)nc2ccccc12	-0.2%	13	12%	-3%[15.4 µM]	-0.8	2.1
COc1ccc(CNC(=O)[C@@H]2CC=C[C@@H]3CCN(C4CC4)C(=O)[C@@H]32)cc1	0.2%&2.1%	-11	9%	-15%	0.0&-0.6	/

The list goes on; it opens with the 4 that closed the last part.
SMILES	ClpP mod	TRPML1 inh	gsp antag	gsp agonist	TRPML1 ag	Menin MLL FP FL
CCC(C)(C)NC(=O)CN(C(=O)CNS(=O)(=O)c1ccc(C)cc1)c1ccc2c(c1)OCCO2	0.1%	8	0%	?	0.4	-0.1
O=C(NC1CCC(=O)N(CCSc2ccccc2)CC1)OCc1ccccc1 (stereo unspecified)	-2.9%&0.6%	12	-1%	/	0.2&-0.8	0.2
COc1nc(-c2cccc([N+](=O)[O-])c2)nc2ccccc12	-0.2%	13	12%	-3%[15.4 µM]	-0.8	2.1
COc1ccc(CNC(=O)[C@@H]2CC=C[C@@H]3CCN(C4CC4)C(=O)[C@@H]32)cc1	0.2%&2.1%	-11	9%	-15%	0.0&-0.6	/
Cc1cccc2sc(N(CCCN(C)C)C(=O)c3cc4ccccc4oc3=O)nc12	-3.1%	1	10%	26%	1.1	0.8
Cc1ccc(-n2nc3c(=O)n(C(C)C(=O)NCc4ccc(OC(C)C)cc4)nc(C)c3c2C)cc1 (stereo unspecified)	-0.9%	-6	/	/	0.4	/
CN(CC(=O)Nc1cccc(F)c1)C(=O)c1ccc2c(c1)NC(=O)CS2	0.3%	-2	26%	-33%	-0.5	/
CCOC(=O)c1c(C)[nH]c(C)c1C(=O)CSc1nnc(-c2cc(OC)c(OC)c(OC)c2)o1	1.5%	17	15%	2%	-1.4	4.4
CC1(C)CC(=O)C=C(c2ccc(OC(F)(F)F)cc2)C1	1.2%	-3	7%	-21%	-0.2	/
CC(C)COc1cccc(C(=O)N(C)CC(=O)Nc2cccc3ccccc23)c1	2.4%	-12	?	8%[15.4 µM]	1.7	/
CCCCSc1nc2sc3c(c2c(=O)n1-c1ccc(C)cc1)CCN(C)C3	1.0%	5	-24%	-3%[15.4 µM]	-1.5	22
CCCCC(CC)C(=O)Nc1cc(C(=O)NCCC)ccc1N1CCC2(CC1)CC(c1cccc(Br)c1)=NO2 (stereo unspecified)	-7.5%	2	-6%	-20%	-1.0	/
COc1cc2ccc(=O)oc2c(O)c1O	-1.9%	/	-29%	/	/	?
CCOC(=O)c1[nH]c(C)c(CN(C(C)=O)c2ccc(OCC)cc2)c1C	/	1	-7%	7%	-0.1	-0.5
O=S(=O)(NC1c2cccc3cccc(c23)C1N1CCN(CCO)CC1)c1ccccc1 (stereo unspecified)	-5.3%	-12	14%	1%	0.2	1.5
COc1ccc(CCNC(=O)Cc2ccc(Cl)cc2)cc1OC	1.7%	-5	4%	0%	-0.1	-2.6
Nc1nonc1C(=O)N/N=C/c1ccc(Br)o1	/	19	1%	4%[15.4 µM]	2.0	-1.3
CCOCCCNc1nc2ccccc2n2c(CC)nnc12	-8.9%	21	/	/	0.0	/
COc1ccc(NC(=O)CSc2n[nH]c(N)n2)cc1OC	-6.7%	-2	1%	-6%	0.3	1.7
O=C(CSc1nnc(-c2ccncc2)o1)Nc1ccccc1C(F)(F)F	1.1%	-5	0%	-3%[15.4 µM]	0.0	/
O=C(Nc1ccc(Cl)cc1)OCc1cc(-c2ccccc2Cl)on1	-2.0%	15	2%	-15%	3.0	1.5
CC1CCCCN1C(=O)COc1ccccc1F (stereo unspecified)	/	-5	15%	-19%[15.4 µM]	0.4	0.3
C=CCNC(=O)C1CCN(S(C)(=O)=O)CC1	-0.7%	-11	7%	3%	0.9	-1.6
NC(=O)C1CCN(CC(=O)N2N=CCC2c2ccccc2)CC1 (stereo unspecified)	-0.1%	1	10%	-71%[inhibitor]	0.5	-0.3
Cc1c(CC(=O)N2CCCCC2)c(=O)oc2cc3occ(C(C)(C)C)c3cc12	?	-4	/	/	0.0	/
CN(C)c1ccc(C(=O)NCC(c2cccs2)N2CCOCC2)cc1[N+](=O)[O-] (stereo unspecified)	0.3%	-6	9%	?	-0.7	/
Cc1sc2nc(C(C)C)nc(SCC(=O)NC3CC3)c2c1C	/	14	-8%	9%	0.6	0.5
COc1cc(CNC2CCCC2)cc(Cl)c1OCc1ccc(F)cc1	0.4%	-9	21%	17%	0.1	0.3
OCCCNCc1ccc(Cl)cc1Cl	/	2	10%	-24%[15.4 µM]	-0.1	0.4
Cc1nnc(SCC(=O)Nc2ccc(N3CCOCC3)cc2)n1Cc1ccccc1	-1.9%	14	-6%	4%	2.8	/
COc1ccc2nc(Nc3nc(CSc4ccc(C)cc4)cc(=O)[nH]3)nc(C)c2c1	/	-4	/	0%[15.4 µM]	0.3	1.5
Cc1ccc2nc(SCC(=O)N3CCCc4ccccc43)nc(=O)n2c1	2.6%	7	-5%	1%	-0.6	/
CCCCCCSc1ccc([C@@H]2[C@@H]3C(=O)N(CC)C(=O)[C@@H]3[C@]3(C(=O)OC)CCCCN23)cc1OC	-19%	60	-4%	/	1.8	/
O=c1c2ccccc2[nH]c2ccccc12	4.5%	/	-4%	/	/	3.0
COc1ccc(OC)c(C(C)NC(=O)c2ccc(Br)cc2)c1 (stereo unspecified)	-1.7%	19	-11%	?	3.0	2.1
COc1ccccc1OCCn1c(SCC(=O)O)nc2ccccc21	-1.4%	3	-9%	3%	-1.0	0.8
O=C1C(c2ccc(F)cc2)N(Cc2ccc3c(c2)OCO3)C(=O)CN1C1CCCCC1 (stereo unspecified)	-1.8%	59	?	-6%	-0.1	3.8
O=C(O)CSc1nnc(C2CC2)n1-c1ccccc1	1.0%	-6	8%	?	0.0	-0.1
CC(C)(C)SCCNC(=O)COc1ccccc1	-0.5%	-10	-5%	-15%	-0.2	0.2
CC12CCC(=O)N1C(C(=O)Nc1ccc(Cl)c(S(=O)(=O)N3CCCCC3)c1)CS2 (stereo unspecified)	-1.1%	22	-21%	-13%	0.0	/
CC(C)(C)OC(=O)N1CCC(c2c(C(=O)Nc3ccc4c(c3)OCCO4)cnn2-c2ccc(F)cc2)CC1	-2.1%	1	/	/	1.0	/
NS(=O)(=O)c1ccc(CCNC(=O)c2ccc3nccnc3c2)cc1	?	25	-10%	7%	0.2	/
O=C(COC(=O)c1ccc(F)c(S(=O)(=O)N2CCOCC2)c1)NCCc1ccc(F)cc1	-1.9%	24	-6%	32%	0.3	/
CCOc1ccc(CCNC(=O)c2nn(C)c3c2CSc2ccccc2-3)cc1	-0.1%	2	/	/	-0.3	/
CCCCn1c(N)c(N(C(=O)CSc2nnnn2-c2ccccc2)C2CCCC2)c(=O)[nH]c1=O	-0.9%	21	6%	-33%	-0.5	/
Cc1cccc(NC(=S)N/N=C/C(C)c2ccccc2)c1C (stereo unspecified)	/	-12	1%	-20%[15.4 µM]	-0.2	1.9
Cc1ccccc1-c1nc(CSc2nc3c(c(=O)[nH]2)CCC3)c(C)o1	-3.3%	27	-5%	-2%	2.8	0.0
Cc1cc(-c2csc3ncnc(N4CCN(C)CC4)c23)cc(C)c1C	/	-28	-13%	6%[15.4 µM]	-0.7	2.2
COc1ccc(OC)c(N(C)S(=O)(=O)c2ccc3c(c2)N(C(C)=O)CCO3)c1	-1.4%	8	0%	?	0.4	-4.0
COc1ccc(/C=N/NC(=O)CCc2ccccc2)cc1O	-3.1%	-4	3%	21%	-0.4	-2.0
CS(=O)(=O)N1CCc2cc(C(=O)NCc3ccccc3)ccc21	-1.9%	-10	/	/	-0.3	/
Cc1ccc(C)c(N2N=C(C(=O)Nc3ccc(S(=O)(=O)N4CCCC4)cc3)CCC2=O)c1	-0.9%	-6	-22%	9%	1.1	4.5
CCC(C(=O)N1CCN(c2cccc(Cl)c2)CC1)c1ccccc1 (stereo unspecified)	-1.7%	8	-17%	7%	3.3	-1.7
O=C(COc1ccccc1C(=O)Nc1ccccc1)c1ccc(F)cc1	/	-5	-13%	-8%[15.4 µM]	-0.7	0.7
COC(=O)c1cc(OC)c(OC)cc1NC(=O)CSc1nnc(-c2cccnc2)n1C	-0.1%	14	-2%	-1%	-0.7	1.5
CC(C)Oc1ccc(CNC(=O)C2CCCN(S(=O)(=O)N3CCOCC3)C2)cc1 (stereo unspecified)	1.4%	-17	-10%	-123%[inhibitor]	0.7	0.2
C/C(CC(=O)Nc1ccc(C)c(Cl)c1)=N\NC(=O)C1CCCCC1	/	12	-3%	-1%[15.4 µM]	-0.7	/
CCOC(=O)C1CCCN(C(=O)CN2C(=O)NC(C)(c3ccc4ccccc4c3)C2=O)C1 (stereo unspecified)	1.3%	-5	11%	-15%[15.4 µM]	0.5	/
Brc1cc2c(cc1CN1CCc3ccccc3C1)OCO2	1.2%	-1	-3%	-65%[inhibitor]	0.1	0.2

No enrichment for hits. Share with any hit: about 2.1%.
